# YB-1 expression: YB-1 expression inhibition; hit rate 0.37% among 30,000; delta delta Cp (YB-1 minus CDIP) (no concentration beside the values); U2OS, qRT-PCR YB-1 vs CDIP delta delta Cp, 16 h; hits give high values; zero = DMSO, each unit about twofold; AID 434959;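 active means delta delta Cp rounded down to an integer at or above 3, about 3 SD of DMSO wells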;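 further: higher means less YB-1 transcript or more CDIP transcript relative to DMSO; stock transfer was 100 nL into about 100 µL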
# Starred values were filed as active, the others as inactive.
SMILES,YB-1 expression
C[C@@H]1CN([C@H](C)CO)C(=O)CCCn2nncc2CO[C@H]1CN(C)Cc1cccc(C(=O)O)c1,-0.4
O=C1C[C@@](C(=O)NCCN2CCOCC2)(c2ccc([N+](=O)[O-])cc2)[C@@H](c2ccc(CO)cc2I)N1CC12CC3CC(CC(C3)C1)C2,-0.19
O=C(CCCCC(=O)N/N=C/c1cccs1)NO,-0.19
O=C(N/N=C/c1ccc2c(c1)Cc1ccccc1-2)c1ccccc1O,0.024
O=S(=O)(c1ccc(-c2ccccc2)cc1)N1CCN(Cc2ccc(OCCO)cc2)CC1,0.053
CC(C)=CCC[C@@H](C)C/C=N/NC(=O)CCCCCCC(=O)Nc1ccccc1O,-0.4
Cc1cccc(CN(C)C[C@@H]2OCc3cn(nn3)CCCC(=O)N([C@H](C)CO)C[C@@H]2C)c1,0.35
C[C@H](CO)N1C[C@H](C)[C@H](CN(C)S(=O)(=O)c2cccs2)Oc2ncc(-c3ccc(F)cc3)cc2C1=O,0.061
COc1ccc([C@@H]2C=C(C(=O)O)O[C@H](OCCCCO)C2)cc1,-0.074
NC(=O)[C@H]1[C@@H]2C(=O)O[C@@H](c3ccccc3)[C@@H](c3ccccc3)N2[C@@H](c2ccc(O)cc2)[C@]12C(=O)Nc1ccc(C#CCCO)cc12,-0.31

# Sorted by value in YB-1 expression (lowest first): 4 from the list above
SMILES,YB-1 expression
C[C@@H]1CN([C@H](C)CO)C(=O)CCCn2nncc2CO[C@H]1CN(C)Cc1cccc(C(=O)O)c1,-0.4
NC(=O)[C@H]1[C@@H]2C(=O)O[C@@H](c3ccccc3)[C@@H](c3ccccc3)N2[C@@H](c2ccc(O)cc2)[C@]12C(=O)Nc1ccc(C#CCCO)cc12,-0.31
O=C1C[C@@](C(=O)NCCN2CCOCC2)(c2ccc([N+](=O)[O-])cc2)[C@@H](c2ccc(CO)cc2I)N1CC12CC3CC(CC(C3)C1)C2,-0.19
O=C(N/N=C/c1ccc2c(c1)Cc1ccccc1-2)c1ccccc1O,0.024

# (further entries)
SMILES,YB-1 expression
C=CCNC(=O)[C@@H]1[C@H]2C(=O)O[C@H](c3ccccc3)[C@H](c3ccccc3)N2[C@H](c2ccc(O)cc2)[C@@]12C(=O)N(C(=O)OCCOC)c1ccccc12,0.058
C[C@@H]1CN([C@H](C)CO)C(=O)CCCn2cc(nn2)CO[C@H]1CN(C)C(=O)CCC(F)(F)F,-0.24
O=C1O[C@@H](c2ccccc2)[C@@H](c2ccccc2)N2[C@@H](c3ccc(O)cc3)[C@]3(C(=O)Nc4ccccc43)[C@@H](C(=O)NC[C@H](O)c3ccccc3)[C@H]12,-0.51
C[C@@H]1CN([C@@H](C)CO)C(=O)CCCn2cc(nn2)CO[C@H]1CN(C)C(=O)Nc1ccc(F)cc1,0.015
C[C@@H]1CN([C@H](C)CO)C(=O)CCCn2cc(nn2)CO[C@H]1CN(C)C(=O)Nc1cccc2ccccc12,0.46
C[C@H](CO)N1C[C@H](C)[C@@H](CN(C)C(=O)Nc2cccc(C(F)(F)F)c2)OCc2cnnn2CCCC1=O,-0.4
C[C@H]1CN([C@@H](C)CO)C(=O)CCCn2nncc2CO[C@H]1CN(C)S(=O)(=O)c1cccs1,0.39
C[C@H]1CN([C@@H](C)CO)C(=O)CCCn2cc(nn2)CO[C@H]1CN(C)Cc1ccc2c(c1)OCCN2C,0.29
O=C(O)c1ccc(/C=N/NC(=O)c2ccc(C(=O)NO)cc2)cc1,0.064
COc1ccc(OC(=O)N(C)C[C@@H]2OCc3cn(nn3)CCCC(=O)N([C@@H](C)CO)C[C@@H]2C)cc1,-0.18
C[C@H](CO)N1C[C@H](C)[C@@H](CN(C)C(=O)NC2CCCCC2)OCc2cn(nn2)CCCC1=O,0.21
COC(=O)CCCCCCC(=O)N/N=C/CCC1CCCCC1,-0.28
C[C@@H]1CN([C@@H](C)CO)C(=O)CCCn2cc(nn2)CO[C@H]1CN(C)C(=O)Oc1ccccc1,0.71
O=C(O)C1=C[C@H](c2csc3ccccc23)C[C@H](OCc2ccc(CO)cc2)O1,-0.052
C=CCNC(=O)[C@H]1[C@@H]2C(=O)O[C@@H](c3ccccc3)[C@@H](c3ccccc3)N2[C@@H](c2ccc(OCCO)cc2)[C@]12C(=O)N(C(=O)OCCOC)c1ccc(C#CC3(O)CCCCCC3)cc12,0.14
Cc1cccc(CN(C)C[C@H]2OCc3cn(nn3)CCCC(=O)N([C@H](C)CO)C[C@H]2C)c1,0.34
CC(C)COC(=O)N(C)C[C@H]1OCc2cn(nn2)CCCC(=O)N([C@H](C)CO)C[C@H]1C,-0.16
COc1ccc(NC(=O)O[C@@H](c2ccc(OCCO)cc2)[C@H](C)CCO)cc1,-0.38
C=CC[C@]1(C(=O)N2CCCCC2)N=C(c2ccc(OCCCO)cc2)O[C@H]1c1ccccc1,0.31
CCCC(O)C#Cc1cnc2c(c1)C(=O)N([C@H](C)CO)C[C@H](C)[C@H](CN(C)Cc1ccccc1)O2 (stereo partly drawn),0.058
O=C(N/N=C/c1cccnc1Br)c1ccccn1,-0.58
C[C@H]1CN([C@@H](C)CO)C(=O)CCCn2cc(nn2)CO[C@H]1CN(C)Cc1ccc(C(F)(F)F)cc1,-0.04
O=C(CCCCCCC(=O)Nc1ccccc1O)N/N=C/c1ccc(N2CCCC2)cc1,-0.086
COc1ccc(Br)c(/C=N/NC(=O)c2ccc(C(=O)NO)cc2)c1,0.069
O=C(CCCCCC(=O)Nc1ccccc1O)N/N=C/c1ccc(Br)cc1,0.027
COc1cc(OC)c(/C=N/NC(=O)CCCCCCC(=O)Nc2ccccc2O)c(OC)c1,-0.14
Cc1ccc(CN(C)C[C@H]2OCc3cnnn3CCCC(=O)N([C@H](C)CO)C[C@H]2C)cc1,0.67
NCCCCCNC(=O)[C@@H]1C[C@@H]2C(=O)N[C@@H](Cc3ccccc3)C(=O)N2[C@@H]1c1ccc(O)cc1,-0.43
Cc1ccc(S[C@]2(C(=O)NCCCN(C)C)CC(=O)N(C3CCCCC3)[C@@H]2c2ccc(CO)cc2I)cc1,-0.051
COC(=O)CCCCCCC(=O)N/N=C/c1cc(Br)cc(OC)c1O,-0.2
C[C@H]1CN([C@@H](C)CO)C(=O)CCCn2cc(nn2)CO[C@@H]1CN(C)C(=O)Nc1ccccc1,-0.01
O=C(NO)c1cccc(C(=O)N/N=C/c2c[nH]c3ccccc23)c1,0.04
O=C(CCCCCCC(=O)Nc1ccccc1O)N/N=C/c1ccco1,-0.34
COc1cc(/C=N/NC(=O)c2cccc(C(=O)NO)c2)ccc1O,0.067
C[C@@H]1CN([C@H](C)CO)C(=O)CCCn2nncc2CO[C@@H]1CN(C)C(=O)Cc1ccccc1,0.26
COC(=O)[C@@]1(Cc2ccccc2)N=C(c2ccc(OCCCO)cc2)O[C@H]1c1ccccc1CN=[N+]=[N-],-0.29
COc1ccc(-c2cnc3c(c2)C(=O)N([C@H](C)CO)C[C@H](C)[C@H](CN(C)S(=O)(=O)c2cccc(F)c2)O3)cc1,0.21
CCCC(O)C#Cc1cnc2c(c1)C(=O)N([C@H](C)CO)C[C@H](C)[C@H](CN(C)C(=O)Nc1ccccc1)O2 (stereo partly drawn),-0.45
CN(C)CCCCCCNC(=O)[C@H]1C[C@H]2C(=O)N3CCC[C@H]3C(=O)N2[C@H]1c1cccc(OCCO)c1,0.12
COc1ccc([Si](C)(C)[C@@H]2[C@@H](CCn3cc([C@H](O)c4ccccc4)nn3)O[C@]3(C(=O)N(Cc4ccc(N5CCC5=O)cc4)c4ccccc43)[C@H]2C)cc1,0.58

# By substructure, the compounds so far with bromine (four)
SMILES,YB-1 expression
O=C(N/N=C/c1cccnc1Br)c1ccccn1,-0.58
COc1ccc(Br)c(/C=N/NC(=O)c2ccc(C(=O)NO)cc2)c1,0.069
O=C(CCCCCC(=O)Nc1ccccc1O)N/N=C/c1ccc(Br)cc1,0.027
COC(=O)CCCCCCC(=O)N/N=C/c1cc(Br)cc(OC)c1O,-0.2

# Other compounds:
SMILES,YB-1 expression
COC(=O)CCCCCCC(=O)N/N=C/[C@H](O)[C@@H](O)[C@H](O[C@@H]1O[C@H](CO)[C@H](O)[C@H](O)[C@H]1O)[C@H](O)CO,-0.077
C[C@@H]1CN([C@H](C)CO)C(=O)CCCn2cc(nn2)CO[C@H]1CN(C)S(=O)(=O)c1cccs1,0.12
COc1ccc([Si](C)(C)[C@H]2[C@H](CC(=O)N3Cc4ccccc4C[C@H]3CO)O[C@@]3(C(=O)N(C)c4c(Br)cc(C)cc43)[C@@H]2C)cc1,-0.042
Cc1cccc(CN(C)C[C@@H]2OCc3cn(nn3)CCCC(=O)N([C@@H](C)CO)C[C@@H]2C)c1,-0.087
CC(C)OC(=O)N(C)C[C@H]1OCc2cnnn2CCCC(=O)N([C@@H](C)CO)C[C@@H]1C,0.096
COc1ccc(C#Cc2ccc3c(c2)[C@]2(C(=O)N3)[C@H](C(N)=O)[C@H]3C(=O)O[C@H](c4ccccc4)[C@H](c4ccccc4)N3[C@@H]2c2ccc(O)cc2)cc1,0.018
C[C@H](CO)N1C[C@H](C)[C@@H](CN(C)C(=O)Nc2cccc(F)c2)OCc2cn(nn2)CCCC1=O,-0.19
COc1ccccc1NC(=O)N(C)C[C@@H]1OCc2cnnn2CCCC(=O)N([C@@H](C)CO)C[C@@H]1C,-0.48
C[C@@H]1CN([C@H](C)CO)C(=O)CCCn2cc(nn2)CO[C@@H]1CN(C)Cc1ccc(C(F)(F)F)cc1,-0.12
Cc1noc(C)c1NC(=O)N(C)C[C@H]1OCc2cn(nn2)CCCC(=O)N([C@H](C)CO)C[C@@H]1C,-0.02
C[C@@H]1CN([C@@H](C)CO)C(=O)CCCn2nncc2CO[C@@H]1CN(C)C(=O)Nc1cccc(C(F)(F)F)c1,0.4
O=C(CCCCCCC(=O)Nc1ccccc1O)N/N=C/c1ccccc1OCCO,-0.13
C[C@H]1CN([C@@H](C)CO)C(=O)CCCn2nncc2CO[C@H]1CN(C)C(=O)C1CCCCC1,-0.32
CN(C)c1ccc(/C=N/NC(=O)c2cccc(C(=O)NO)c2)cc1,0.57
C[C@@H]1CN([C@H](C)CO)C(=O)CCCn2cc(nn2)CO[C@@H]1CN(C)S(=O)(=O)c1cn(C)cn1,0.039
COc1ccc([Si](C)(C)[C@@H]2[C@@H](CCO)O[C@]3(C(=O)N(Cc4ccccc4)c4ccc(N5C(=O)c6cccc7cccc5c67)cc43)[C@H]2C)cc1,-0.18
COc1ccc(C#Cc2ccc3c(c2)[C@]2(C(=O)N3)[C@H](C(=O)NC[C@H](O)c3ccccc3)[C@H]3C(=O)O[C@H](c4ccccc4)[C@H](c4ccccc4)N3[C@@H]2c2ccccc2OCCO)cc1,-0.088
COC(=O)CCCCCCC(=O)N/N=C/c1cccc2ccccc12,0.42
Cc1cccc(CN(C)C[C@@H]2OCc3cnnn3CCCC(=O)N([C@H](C)CO)C[C@@H]2C)c1,0.14
O=C(N/N=C/c1ccccc1)c1ccccc1O,-0.018
Cc1[nH]cnc1/C=N/NC(=O)CCCCC(=O)NO,-0.23
COC(=O)[C@H]1COC(c2ccc(OCCCO)cc2)=N1,-0.073
C[C@H]1CN([C@@H](C)CO)C(=O)CCCn2nncc2CO[C@H]1CN(C)Cc1cccc(C(=O)O)c1,-0.068
C[C@@H]1CN([C@@H](C)CO)C(=O)CCCn2nncc2CO[C@@H]1CN(C)S(=O)(=O)c1cccs1,-0.24
CO[C@H]1O[C@H](CO)[C@@H](OC(=O)Nc2ccc3c(c2)OCO3)[C@@H]2OC(=O)[C@@H](Cc3ccccc3)C/C=C/C[C@H](Cc3ccccc3)C(=O)O[C@@H]12,-0.24
COc1cccc(S(=O)(=O)N(C)C[C@H]2OCc3cn(nn3)CCCC(=O)N([C@@H](C)CO)C[C@@H]2C)c1,-0.48

# Only part of the results is shown, so the mix of outcomes need not match the whole.
